# Epigenetic derep – Quantitative High-Throughput Screen for Regulators of Epigenetic Control. hit rate 0.2% among 280,000. Potency, µM (titrated, usually from 53.9 µM), for the others: at the top dose GFP activation, usual class: activators. murine LDR cells, GFP reporter derepression, 30 h. AID 1865, 2009; further: potency means the concentration at half of the fitted maximal effect; % of control where 0% means no effect; nearly all actives have a fitted effect of over 60% in size
#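 Murine LDR cells carrying a silenced, genomically integrated CMV-driven GFP reporter were exposed to compound for 30 hours at 37 C. After PBS washes, GFP-positive cells (20–120 um objects) were counted by laser-scanning microplate cytometry.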
# L3MBTL1 inh – qHTS Assay for the Inhibitors of L3MBTL1; Lethal(3)malignant brain tumor-like protein 1 (Homo sapiens), Q9Y468; AlphaScreen L3MBTL1–H3K9me1 peptide binding; Potency, µM (titrated, usually from 57.1 µM), inactives show top-dose activity, negative = inhibition, actives largely listed as inhibitors; hit rate 0.66% among 230,000; AID 485360, 2010; further: potency means the concentration at half of the fitted maximal effect; on the % scale 0 is the no-effect control and ±100 the full control effect; nearly all actives have a fitted effect of over 60% in size
# Target sequence (Q9Y468 whole entry, looked up): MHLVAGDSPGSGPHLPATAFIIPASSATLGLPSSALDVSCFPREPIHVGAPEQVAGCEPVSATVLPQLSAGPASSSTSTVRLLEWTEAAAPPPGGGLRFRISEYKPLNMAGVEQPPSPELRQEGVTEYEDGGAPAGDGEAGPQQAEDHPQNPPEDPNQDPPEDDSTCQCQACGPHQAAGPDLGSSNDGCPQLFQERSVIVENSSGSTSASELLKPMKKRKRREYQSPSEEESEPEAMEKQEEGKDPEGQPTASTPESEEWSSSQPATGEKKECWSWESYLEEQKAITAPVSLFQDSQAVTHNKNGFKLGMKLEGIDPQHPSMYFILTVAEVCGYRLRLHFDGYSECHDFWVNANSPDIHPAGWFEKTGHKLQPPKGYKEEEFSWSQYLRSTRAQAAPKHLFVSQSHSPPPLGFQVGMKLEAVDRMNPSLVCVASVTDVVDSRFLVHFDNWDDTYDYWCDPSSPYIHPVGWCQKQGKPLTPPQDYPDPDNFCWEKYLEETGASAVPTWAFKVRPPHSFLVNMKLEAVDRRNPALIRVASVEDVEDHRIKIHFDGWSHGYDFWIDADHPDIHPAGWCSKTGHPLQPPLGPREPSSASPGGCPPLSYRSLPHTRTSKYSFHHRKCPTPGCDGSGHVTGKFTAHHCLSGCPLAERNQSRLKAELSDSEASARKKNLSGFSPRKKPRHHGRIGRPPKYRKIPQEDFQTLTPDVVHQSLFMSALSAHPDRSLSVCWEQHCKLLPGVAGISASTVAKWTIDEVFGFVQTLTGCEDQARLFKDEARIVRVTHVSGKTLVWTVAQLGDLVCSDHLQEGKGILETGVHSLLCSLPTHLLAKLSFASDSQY
#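 AlphaScreen assay: L3MBTL1 (50 nM final) was preincubated 30 min at room temperature with biotinylated H3(1-15)K9me1 peptide (75 nM final), then 30 min with library compounds; streptavidin donor and nickel chelate acceptor beads (10 ug/mL final) added, 30 min dark.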
# HTT aggregate – qHTS Multiplex Assay to Identify Dual Action Probes in a Cell Model of Huntington: Aggregate Formation (GFP); PC12 HttQ103-GFP aggregates, Acumen cytometry, 40 h; Potency, µM (series often up to 46.1 µM), without a hit: at the highest dose activity change, negative = inhibition, usual class: inhibitors; hit rate 1.1% among 220,000; AID 1688, 2009; further: potency means the concentration at half of the fitted maximal effect; on the % scale 0 is the no-effect control and ±100 the full control effect; nearly all actives have a fitted effect of over 60% in size
#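 Steps: seed 1500 PC12 HTTQ103-GFP cells/well; add tebufenozide, 100 nM final; add compound titration; add ATPLite reagent; quantify GFP aggregates by laser scanning cytometry.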
# CBFb-RUNX1 inh – qHTS Assay for Compounds Blocking the Interaction Between CBF-beta and RUNX1 for the Treatment of Acute Myeloid Leukemia; AlphaScreen CBFb-His/RUNX1-biotin binding, biochemical; AID 1477, 2009; 230,000 tested, under 10 active; Potency, µM (top dose mostly 59.8 µM), inactives show at the top dose activity, negative = inhibition, usual class: inhibitors; further: % of control where 0% means no effect
#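 Proteins preincubated together for 20 min at RT before compound addition; 15 min later, nickel and streptavidin beads were added and left 90 min prior to AlphaScreen measurement.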
# KinaseGlo FLuc – Counterscreen for Luciferase (Kinase-Glo TM) Inhibition; Kinase-Glo luciferase, ATP luminescence, 8 min; Potency, µM (series often up to 38.3 µM), for inactives: at the highest dose activity change, negative = inhibition, actives largely listed as inhibitors; hit rate 0.28% among 200,000; AID 1379, 2008; further: potency means the concentration at half of the fitted maximal effect; on the % scale 0 is the no-effect control and ±100 the full control effect; nearly all actives have a fitted effect of over 60% in size
#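 Recombinant Kinase-Glo luciferase, 10 uM ATP (linear range), luciferin; imidazole pH 7.2 / KCl / MgCl2 / Tween / BSA buffer; 8 min RT; luminescence.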
# IMPase Li cell – qHTS Assay for Identifying the Cell-Membrane Permeable IMPase Inhibitors: Potentiation with Lithium | CHO-M1 cells, IP1 TR-FRET (IP-One), carbachol + lithium | Potency, µM (top dose mostly 59.4 µM), for the others: at the highest dose activity, negative = IMPase inhibition, hits mostly inhibitors | hit rate 0.35% among 210,000;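 further: IP1 builds up when IMPase is blocked and the TR-FRET signal falls; potency means the concentration at half of the fitted maximal effect; plate controls were basal vehicle for no effect and high inhibitor control for full effect; nearly all actives have a fitted effect of over 50% in size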
#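 Steps: plate 2000 CHO-M1 cells per well and culture 16–30 h; add compound and lithium; incubate 30 min, 37C; add d2-IP1 tracer and Eu cryptate anti-IP1 antibody in lysis buffer; read after 10 min at room temperature.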
# Starred values were filed as active, the others as inactive; ? = inconclusive; . = no result given; [ ] = dose if it differs, or a comment. The call rests on the fitted dose curve; in most records, active means well fitted curve in the direction sought with a large enough effect; inconclusive means small, poorly fitted or top-dose-only effect, or another doubt; inactive means no such curve, though single readings can be large; an effect the other way counts as inactive or inconclusive. Not all compounds are listed; the hit share may differ from the screen's.
SMILES,Epigenetic derep,L3MBTL1 inh,HTT aggregate,CBFb-RUNX1 inh,KinaseGlo FLuc,IMPase Li cell
Cn1c(-c2ccc3c(c2)OCO3)cnc1NCc1ccc(Cl)cc1,0.0%,.,-22%,-6%,3%,32%[activator][38.3 µM]
CCCCc1nc(NCCNC(=O)c2ccccc2)c(C#N)c2c1CSC(C)(C)C2,0.0%,.,?,-2%,-2%,48%[activator][38.3 µM]
CCOC(=O)/C(C#N)=C\c1ccc(OCC(=O)Nc2ccc(C)cc2C)c(OC)c1,-1.3%,-8%,6%,-1%,-5%,4%[38.3 µM]
CCN(CC)C(=O)c1sc(NC(=O)C(Sc2ccccc2)c2ccccc2)c(C(=O)OC(C)C)c1C (configuration not stated),0.7%,.,?,-3%,-2%,9%[38.3 µM]
Cc1ccccc1N(CC(=O)N/N=C/c1ccc(F)cc1)C(=O)c1ccccc1,1.4%,.,3%,-4%,-2%,31%[38.3 µM]
O=C(Cc1n[nH]c(=O)c2ccccc12)OCC(=O)c1ccc2c(c1)OCCO2,-2.7%,-1%,12%,-5%,0%,-7%[38.3 µM]
CCCN(CCC)CCNC(=O)C1c2ccccc2C(=O)N(CCOC)C1c1ccc(F)cc1 (configuration not stated),-1.0%,.,15%,0%,-1%,29%[38.3 µM]
Fc1ccc(-n2c(-c3ccc4ccccc4n3)n[nH]c2=S)cc1Cl,0.9%,-4%,?,-6%,0%,2.8µM*
COc1ccc2cc(/C=N/NC(=O)CSCc3ccc([N+](=O)[O-])cc3)c(Cl)nc2c1,-1.1%,1%,-8%,1%,-2%,1%[38.3 µM]
COc1ccc(Oc2c(Cl)cnn(-c3ccc(C)cc3)c2=O)cc1,-5.7%,12%,31%,18%,2%,-1%
CN(C)c1ccc(-c2nn3c(-c4cccnc4)nnc3s2)cc1,7.0%,.,-25%,4%,-7%,31%[activator][38.3 µM]
C[C@H](NC(=O)c1nc[nH]c1C(=O)N[C@H](C)c1ccccc1)C(=O)OCc1ccccc1,13%,.,-32%[9.22 µM],-20%,.,.
Cc1cc(O)c(C(=O)/C=C/c2cccc([N+](=O)[O-])c2)c(=O)o1,-1.1%,-7%,-2%[9.22 µM],-8%,.,.
Cc1ccc(CN2CCSc3ccc(C(=O)N4CCN(c5ncccn5)CC4)cc32)cc1,1.4%,-5%,16µM*,5%,-1%,12%[38.3 µM]
CCCN(CCC)CCNC(=O)C1c2ccccc2C(=O)N2CCc3ccccc3C12 (configuration not stated),0.0%,.,-8%,0%,-2%,15%
COc1cccc(C2C3=C(Nc4[nH]n(-c5ccccc5)c(=O)c42)c2ccccc2C3=O)c1 (configuration not stated),-1.1%,-14%,9%,?,0%,4%
C/C(=N\NC(=S)NC1CCCCC1)c1cccc(C(F)(F)F)c1,2.1%,.,-4%[9.22 µM],11%,.,.
CCc1c(O)cc(=O)n(-c2ccccc2)c1-c1ccccc1,1.0%,-9%,7%,?,-1%,-2%
COc1ccc(-n2ncc3c(NC(C)C)ncnc32)cc1,0.0%,-7%,-2%,-3%,-3%,-15%[38.3 µM]
CCOC(=O)CN(C(=O)CSc1nnc2c(n1)[nH]c1c(C)cc(C)cc12)c1ccccc1,-1.0%,.,-3%[9.22 µM],0%,2%,47%[activator][38.3 µM]
O=C(Nc1ccccc1C(=O)O)c1cccc(NC(=O)c2ccc(Br)o2)c1,5.5%,-6%,-13%,6%,3%,20%[38.3 µM]
CCOC(=O)c1c(NC(=O)CN2CCN(C(=O)c3ccco3)CC2)sc2c1CCCC2,-0.8%,-22%,25µM*,-13%,3%,20%
CC1(C)Cc2c(sc3c2c(=N)n(Cc2ccco2)c(=O)n3Cc2ccc(Cl)cc2)CO1,-5.7%,-8%,18µM*,-1%,0%,24%[38.3 µM]
C/C(=N\NC(=O)c1ccc(NS(=O)(=O)c2cccs2)cc1)c1ccc(Cl)cc1,-1.8%,-4%,-2%,-9%,3%,4%
Cc1ccc(C)c(-c2cc(C(=O)Nc3nccs3)c3ccccc3n2)c1,-0.9%,-9%,-10%,-8%,0%,5%[38.3 µM]

# Some of these compounds in order of SMILES length, smallest number first:
SMILES,Epigenetic derep,L3MBTL1 inh,HTT aggregate,CBFb-RUNX1 inh,KinaseGlo FLuc,IMPase Li cell
COc1ccc(-n2ncc3c(NC(C)C)ncnc32)cc1,0.0%,-7%,-2%,-3%,-3%,-15%[38.3 µM]
O=C(Nc1ccccc1C(=O)O)c1cccc(NC(=O)c2ccc(Br)o2)c1,5.5%,-6%,-13%,6%,3%,20%[38.3 µM]
Cc1ccccc1N(CC(=O)N/N=C/c1ccc(F)cc1)C(=O)c1ccccc1,1.4%,.,3%,-4%,-2%,31%[38.3 µM]
Cc1cc(O)c(C(=O)/C=C/c2cccc([N+](=O)[O-])c2)c(=O)o1,-1.1%,-7%,-2%[9.22 µM],-8%,.,.
C[C@H](NC(=O)c1nc[nH]c1C(=O)N[C@H](C)c1ccccc1)C(=O)OCc1ccccc1,13%,.,-32%[9.22 µM],-20%,.,.

# (further entries)
SMILES,Epigenetic derep,L3MBTL1 inh,HTT aggregate,CBFb-RUNX1 inh,KinaseGlo FLuc,IMPase Li cell
COCCN1CC(O)=C(c2nc3ccccc3c(=O)[nH]2)C1=N,1.7%,2%,8%,-3%,3%,1%
CC(NC(=O)Cc1cccs1)c1ccccc1 (configuration not stated),1.1%,1%,10%[9.22 µM],10%,5%,5%
CCc1ccccc1NC(=O)CN1CCC(NC(=O)COC)CC1,0.0%,3%,-5%,5%,-2%,-1%[38.3 µM]
Cc1ccc(-c2cc(C#N)c(=O)n(Cc3c(Cl)cccc3Cl)c2)cc1,-0.9%,9%,11%,6%,-2%,?
CC(=O)Nc1ccc(S(=O)(=O)Nc2nc3ccccc3nc2Nc2cccc(S(N)(=O)=O)c2)cc1,1.1%,-3%,-12%[9.22 µM],7%,.,.
COc1ccc(-c2c3c(=O)n(C)c(=O)n(C)c3cn2Cc2cccnc2)cc1,-2.4%,-7%,5%,4%,15%,-3%[38.3 µM]
CCOC(=O)c1c(NC(=O)Cn2nc(C(=O)O)c3ccccc3c2=O)sc2c1CCC(C)C2 (configuration not stated),0.6%,.,?,7%,.,.
CCCCCCn1c(N2CCN(c3ccccc3)CC2)nc2c1c(=O)n(C)c(=O)n2C,-2.0%,0%[11.4 µM],-10%,2%,2%,45%[activator][38.3 µM]
Cc1ccccc1N(CC(=O)N/N=C/c1ccc(N(C)C)cc1)C(=O)c1ccccc1,-1.0%,.,?,11%,-5%,28%[38.3 µM]
C=CCn1c(=S)[nH]c2scc(-c3cccs3)c2c1=O,0.0%,.,?,-5%,3%,11µM*
Cn1c(=O)c2c(nc(-n3ccnc3)n2Cc2ccc(Cl)cc2Cl)n(C)c1=O,-3.0%,2%,-4%[9.22 µM],-6%,-4%,9%[38.3 µM]
CC(C)c1c(O)nc(SCCC(=O)O)[nH]c1=O,-2.9%,0%,15%,8%,3%,1%[38.3 µM]
CCOC(=O)c1c(CN2CCOCC2)n(-c2ccccc2)c2cc(Br)c(OC)cc12,0.7%,.,-26%,-7%,23%,37%[activator][38.3 µM]
Clc1cccc(CNCCNCc2cccc(Cl)c2)c1,0.4%,.,22%,4%,1%,-1%
CCC(C)(C)n1nnnc1C(c1ccc2ncccc2c1)N1CCN2CCCC2C1 (configuration not stated),-0.7%,-5%,15%,5%,-2%,-17%[38.3 µM]
Fc1cccc(Cc2noc(CN3CCSCC3)n2)c1,-0.2%,7%,-10%[9.22 µM],8%,.,0%
c1coc(Cn2nnnc2CN2CCN(C3CCCC3)CC2)c1,-7.9%,3%,-12%,10%,1%,31%[38.3 µM]
CCOC(=O)C(C)Sc1nc2ccccc2c(=O)n1CC1CCCCC1 (configuration not stated),1.2%,.,-7%,5%,-2%,14%[38.3 µM]
CCOc1cccc(C(=O)NC(=S)Nc2cccc(C)c2)c1,0.0%,-10%,1%,-4%,1%,5%
Cc1cccc(N2CCCn3c2nc2c3c(=O)n(CCN3CCOCC3)c(=O)n2C)c1,6.6%,4%,8%,7%,-1%,8%[38.3 µM]
OC(CN=c1sc2ccccc2n1CC(O)COc1ccccc1)COc1ccccc1 (configuration not stated),3.5%,5%,?,8%,-1%,24%
CC(C)Cn1c(N)c(-c2nc(C(C)C)c(C(=O)c3ccccc3F)s2)c(=O)n(C)c1=O,0.0%,13%,-6%,4%,-2%,10%
CC(NC(=O)c1cc(-c2ccccc2)on1)c1ccccc1 (configuration not stated),0.0%,16%,5%,14%,3%,7%
CCOC(=O)N1CCN(C(=S)NC2CCCCC2)CC1,-3.2%,12%,8%,9%,-2%,12%
Clc1cccc(-c2nn3c(-c4cccc(Cl)c4)nnc3s2)c1,2.2%,7%,6%,-1%,.,.
# (next part)
SMILES,Epigenetic derep,L3MBTL1 inh,HTT aggregate,CBFb-RUNX1 inh,KinaseGlo FLuc,IMPase Li cell
CC(=O)O[C@@H]1C[C@H]2C(C)(C)C(=O)C=C[C@]2(C)[C@H]2CC[C@@]3(C)[C@H](c4ccoc4)OC(=O)[C@H]4O[C@]43[C@@]21C,6.8%,-13%,.,-7%,0%,10%
CC(=O)Nc1cccc(Oc2cc(C#N)c(C#N)cc2N2CCCCCC2)c1,-1.1%,12%,?,10%,0%,5%[38.3 µM]
CCN1C(c2ccccc2)C(C)C(=O)C(C)C1c1ccccc1 (configuration not stated),-0.8%,.,7%,-1%,4%,54%[activator][38.3 µM]
CCOc1ccc(N2C(=O)/C(=C/c3cc(OC)c(OC)c(OC)c3)N(CC(=O)OC)C2=S)cc1,0.9%,-9%,23%,4%,-7%,-23%[38.3 µM]
On1c(-c2ccco2)nc2c1CCc1nonc1-2,-0.5%,-3%,-6%,-7%,-4%,-4%[38.3 µM]
O=C(Cc1cccs1)N(Cc1cccs1)C1(C(=O)NC2CCCCC2)CCCCC1,-0.1%,.,8%,0%,1%,24%[38.3 µM]
COc1ccccc1CC(=O)Nc1ccc([N+](=O)[O-])cc1OC,2.1%,-6%,-6%,-4%,-2%,9%
Cc1ccccc1N(CC(=O)N/N=C/c1ccccc1Cl)C(=O)c1ccccc1,2.0%,.,-6%,11%,-5%,18%[38.3 µM]
COc1ccc(-c2cc(C(F)(F)F)n3ncc(C(=O)N4CCCCC4c4cccnc4)c3n2)cc1 (configuration not stated),1.3%,14%,-11%,29%,1%,3%
CCOC(=O)c1ccc(NC(=S)NNC(C)(C)C)cc1,?,.,9%[9.22 µM],-4%,.,.
COc1ccc(NC(=O)CSc2nnc(-c3cccs3)n2-c2ccccc2)cc1,-1.5%,5%,-3%,-1%,0%,?
Cc1nn(-c2ccc(F)cc2)c2sc(C(=O)OCC(=O)N3CCC(C)CC3)cc12,0.0%,-10%,-24%,13%,-3%,49%[activator][38.3 µM]
CCCCNC(=O)CCC(=O)Nc1ncc(-c2ccc(C)cc2)n1C,-1.9%,-8%,-4%,1%,-4%,-26%[38.3 µM]
